From PubChem
Vaccinia Venus = qHTS for Stage-Specific Inhibitors of Vaccinia Orthopoxvirus: Venus Reporter Primary qHTS; Vaccinia virus Venus reporter expression, fluorescence; Potency, µM (titrated, usually from 36.5 µM), for inactives: top-dose activity change, negative = inhibition, hits mostly inhibitors; hit rate 0.46% among 330,000; active means well fitted inhibition curve with a large enough effect; inconclusive means small, poorly fitted or top-dose-only effect; inactive means no such curve, though single readings can be large or run the other way; tested in A549 cells; note: nearly all actives have a fitted effect of over 30% in size; inactives centre near -10
VACV mCherry inh = qHTS for Stage-Specific Inhibitors of Vaccinia Orthopoxvirus: mCherry Reporter Primary qHTS; Vaccinia virus mCherry reporter infection, fluorescence; about a quarter of the inactives have no number; Potency, µM (titrated, usually from 36.5 µM), for inactives: at the top dose activity change, negative = inhibition, hits mostly inhibitors; hit rate 0.63% among 310,000; AID 720579, 2013; active = well fitted inhibition curve with a large enough effect; inconclusive = small, poorly fitted or top-dose-only effect; inactive = no such curve, though single readings can be large or run the other way; tested in A549 cells; note: nearly all actives have a fitted effect of over 35% in size; inactives centre near -10
Starred values were filed as active, the others as inactive; [ ] = dose if it differs, or a comment. % is set by controls: 0 for no effect and ±100 for the full control effect; potency is the fitted concentration of half-maximal effect.

For Cc1ccc(S(=O)(=O)N2CCC(Oc3ccc(-n4cnnn4)cc3)CC2)cc1 the results were Vaccinia Venus -20.3% and VACV mCherry inh -13.4%.
Screening COC(=O)c1[nH]c2ccccc2c1NC(=O)c1ccccc1[N+](=O)[O-] returned Vaccinia Venus -6.2% and VACV mCherry inh -10.7%.
For CCOc1ccc(NC(=O)c2c3c(nc4ccccc24)CCC3)cc1 the results were Vaccinia Venus -12.9% and VACV mCherry inh inactive.
Screening Cc1ccc(NC(=O)CCCn2nc(C)c3sc4ccccc4c3c2=O)c(Cl)c1 returned Vaccinia Venus -7.7% and VACV mCherry inh -11.7%.
`Cc1cc(N/C=C2\CCCCC2=O)no1` gave Vaccinia Venus -2.3% and VACV mCherry inh -5.4%.
c1ccc(-c2ccc(CN3CCSCC3)cc2)cc1 was read as Vaccinia Venus -14.0% and VACV mCherry inh inactive.
Screening COC(=O)c1cccc(S(=O)(=O)N(Cc2ccco2)Cc2cc3ccc(OC)cc3[nH]c2=O)c1 returned Vaccinia Venus -15.4% and VACV mCherry inh -22.3%.
`CCc1cc2c(NCC(=O)O)ncnc2s1` gave Vaccinia Venus -8.7%.
CC(=O)C1C(c2ccc(Cl)cc2)NC(=O)NC1(O)C(F)(F)F (stereo not drawn) was read as Vaccinia Venus -10.7% and VACV mCherry inh inactive.
O=C(O)C1CC2C3CC(C(=O)O)C(C3)C2C1 (stereo not drawn) was read as Vaccinia Venus -6.4% and VACV mCherry inh -0.1%.

Five compounds out of the list, ordered by SMILES length, smallest number first.
`Cc1cc(N/C=C2\CCCCC2=O)no1` gave Vaccinia Venus -2.3% and VACV mCherry inh -5.4%.
c1ccc(-c2ccc(CN3CCSCC3)cc2)cc1 was read as Vaccinia Venus -14.0% and VACV mCherry inh inactive.
O=C(O)C1CC2C3CC(C(=O)O)C(C3)C2C1 (stereo not drawn) was read as Vaccinia Venus -6.4% and VACV mCherry inh -0.1%.
CC(=O)C1C(c2ccc(Cl)cc2)NC(=O)NC1(O)C(F)(F)F (stereo not drawn) was read as Vaccinia Venus -10.7% and VACV mCherry inh inactive.
For Cc1ccc(S(=O)(=O)N2CCC(Oc3ccc(-n4cnnn4)cc3)CC2)cc1 the results were Vaccinia Venus -20.3% and VACV mCherry inh -13.4%.

Remaining list, next part:
`CCc1nc2ccc(C(=O)NCCCN3CCCC3=O)cn2c1N(C)C(=O)c1cccc(OC)c1` gave Vaccinia Venus -5.9% and VACV mCherry inh 17.6%.
O=C(Nc1ccc(F)cc1F)N1CCCN(c2ccc([N+](=O)[O-])cn2)CC1 was read as Vaccinia Venus -17.4% and VACV mCherry inh inactive.
Cc1ccc(N2CCN(C(=O)c3cc(COc4c(C)cccc4C)on3)CC2)c(C)c1 was read as Vaccinia Venus -13.4% and VACV mCherry inh inactive.
`CCOC(=O)N1CCN(C(=O)c2ccccc2NC(=O)COc2ccccc2C)CC1` gave Vaccinia Venus -0.6% and VACV mCherry inh inconclusive.
CCCNC(=O)C1CCN(S(=O)(=O)c2ccc3nc4c(c(C(=O)O)c3c2)CCCCC4)CC1 was read as Vaccinia Venus -8.1% and VACV mCherry inh -19.3%.
Cc1cc(C)cc(N(CC(=O)N2CCc3ccccc32)S(=O)(=O)c2c(C)noc2C)c1 was read as Vaccinia Venus -7.1% and VACV mCherry inh 3.9%.
Screening O=C(CCNC(=O)c1ccccc1Cl)Nc1nc(-c2ccc(F)cc2)cs1 returned Vaccinia Venus -19.1% and VACV mCherry inh -25.7%.
Cc1noc(C)c1C(=O)Nc1nc(-c2ccc(F)cc2)cs1 was read as Vaccinia Venus -11.3% and VACV mCherry inh inactive.
O=C(O)CCCNc1ccc(S(=O)(=O)Nc2ccccc2C(=O)O)cc1C(=O)O was read as Vaccinia Venus -10.3% and VACV mCherry inh -5.9%.
`c1ccc2nc(-c3nccs3)ccc2c1` gave Vaccinia Venus -11.7% and VACV mCherry inh inactive.
`O=C(NCc1ccco1)C(=S)N1CCCCC1` gave Vaccinia Venus 9.3% and VACV mCherry inh 3.5%.
CC1(Oc2cccc(C#N)c2)CCN(Cc2csc3ccccc23)C1 (stereo not drawn) was read as Vaccinia Venus -9.3% and VACV mCherry inh 0.2%.
For CCOC(=O)c1c(C)[nH]c(C)c1S(=O)(=O)N(C)CC(=O)Nc1cc(Cl)ccc1C the results were Vaccinia Venus -7.2% and VACV mCherry inh -9.8%.
Cc1nnc(NC(=O)c2cc(S(=O)(=O)N3CCCCC3)ccc2Cl)s1 was read as Vaccinia Venus -15.3% and VACV mCherry inh -4.6%.
CCCCN(c1ccccc1)S(=O)(=O)c1ccc2c(c1)CC(C)N2C(=O)C1CC1 (stereo not drawn) was read as Vaccinia Venus -7.8% and VACV mCherry inh -10.2%.
`O=C(c1cccc2ccccc12)N1CCN(c2ccc([N+](=O)[O-])c(NCc3ccco3)c2)CC1` gave Vaccinia Venus -15.2% and VACV mCherry inh -17.5%.
For CN(CCCn1cnc2c(OCc3ccccc3)ncnc21)CCc1ccccn1 the results were Vaccinia Venus 0.0% and VACV mCherry inh -5.7%.
`Cc1c(C2CCN(CCc3ccccc3)CC2)noc1-c1ccc(Cl)cc1` gave Vaccinia Venus -25.2% and VACV mCherry inh -10.4%.
N=c1c(C(=O)NCCN2CCOCC2)cc2c(=O)n3ccccc3nc2n1Cc1ccc(F)cc1 was read as Vaccinia Venus -2.4% and VACV mCherry inh -17.4%.
Screening CCCCC(=O)NC(=S)Nc1ccc(S(=O)(=O)N2CCCC2)cc1 returned Vaccinia Venus -13.7% and VACV mCherry inh -24.0%.
For O=C(CCCC(=O)NC1CCCC1)NC1CCCC1 the results were Vaccinia Venus -5.8% and VACV mCherry inh -9.3%.
`CCN1C[C@@H]2[C@@H]3C(=O)N(C)C(=O)[C@@H]3[C@](C)(C1=O)N2C(=O)c1ccc(C)cc1` gave Vaccinia Venus -0.7% and VACV mCherry inh inactive.
Fc1ccc(NCc2cccnc2)cc1F was read as Vaccinia Venus -2.8% and VACV mCherry inh -10.2%.
`CC(=O)C(Cc1ccccc1)NC(=O)COC(=O)c1cc(S(=O)(=O)N2CCOCC2)ccc1F` (stereo not drawn) gave Vaccinia Venus -6.6% and VACV mCherry inh inactive.
`CCn1cc2nc(SCc3ccccc3F)n(Cc3ccc(C)cc3)c(=O)c2n1` gave Vaccinia Venus -19.3% and VACV mCherry inh -29.3%.
For CCC/C=C/c1ccc(CN2C(CC(C)C)C(=O)N(Cc3cn(CCC4OCCO4)nn3)CCS2(=O)=O)cc1 (stereo not drawn) the results were Vaccinia Venus -21.9% and VACV mCherry inh -8.8%.
CCCCOc1ccc(CNC(=O)c2cnc3sc(N4CCCC4)nn3c2=O)cc1 was read as Vaccinia Venus -10.6% and VACV mCherry inh -7.0%.
Screening COc1ccc(CCN2CC(C(=O)OC(C)C(=O)Nc3ccc(NC(C)=O)cc3)CC2=O)cc1OC (stereo not drawn) returned Vaccinia Venus -12.5% and VACV mCherry inh -23.2%.
`Cc1cccc(NC(=O)CCNS(=O)(=O)c2ccc3c(c2)CCN3C(=O)C2CC2)c1` gave Vaccinia Venus -7.1% and VACV mCherry inh -4.2%.
For O=[N+]([O-])c1ccc(N2CCN(S(=O)(=O)c3ccccc3)CC2)cc1NCc1cccnc1 the results were Vaccinia Venus 17.8µM*.
Screening COC(=O)[C@]12CCCCC=C1N(Cc1ccco1)C(=O)[C@H](CC(=O)NCc1ccccc1)C2 returned Vaccinia Venus -5.5% and VACV mCherry inh 34.9%[activator].
For CCCC(C)C(=O)OCC(=O)Nc1c(Br)cc(C)cc1Br (stereo not drawn) the results were Vaccinia Venus 7.0% and VACV mCherry inh -3.2%.
For Nc1ccccc1C(=O)N1O[C@@H]2C=C[C@H]1CC2 the results were Vaccinia Venus -16.8% and VACV mCherry inh -14.7%.
`COc1ccc(C)cc1NC(=O)NNS(=O)(=O)c1ccc(NC(C)=O)cc1` gave Vaccinia Venus -7.8% and VACV mCherry inh inactive.
For COc1ccc(CCNC(=O)COC(=O)c2cccs2)cc1 the results were Vaccinia Venus -7.4% and VACV mCherry inh -0.7%.
`CSCCC(NC(=O)COc1ccccc1)C(=O)O` (stereo not drawn) gave Vaccinia Venus -3.9% and VACV mCherry inh inactive.
O=C(COc1ccc(S(=O)(=O)N2CCOCC2)cc1)Nc1ccccc1F was read as Vaccinia Venus -12.1% and VACV mCherry inh -9.2%.
For CCCOc1ccc(-c2nonc2NC(=O)COc2ccc(C)cc2)cc1OCCC the results were Vaccinia Venus -8.2% and VACV mCherry inh -3.1%.
`COc1ccc(C(C)NC(=O)C2C(=O)NC3(C)CC2c2ccccc2O3)cc1` (stereo not drawn) gave Vaccinia Venus -7.4% and VACV mCherry inh -17.7%.
Screening CCS(=O)(=O)N1CCc2cc(C(=O)Nc3cc(OC)c(Cl)cc3OC)ccc21 returned Vaccinia Venus 0.3% and VACV mCherry inh -4.6%.
`O=C(NNS(=O)(=O)c1ccc(Br)cc1)NC1CCCCC1` gave Vaccinia Venus 3.6% and VACV mCherry inh -3.4%.
O=C(O)CCN1C(=O)CC2(CCCCC2)C1=O was read as Vaccinia Venus 7.2%.
O=C(CNC(=O)C1COc2ccccc2O1)N/N=C/c1cc(Br)c(O)c(Br)c1 (stereo not drawn) was read as Vaccinia Venus -1.4% and VACV mCherry inh -14.6%.
COC(=O)c1cc(C#N)c(Oc2ccc(F)cc2)nc1C was read as Vaccinia Venus 6.6%.
`CCOC(=O)Cc1csc(NC(=O)CCC(=O)O)n1` gave Vaccinia Venus -8.9% and VACV mCherry inh inactive.
Screening COc1ccc(-n2c(SCC3CNC(=O)O3)nnc2-c2ccc(Cl)cc2)cc1 (stereo not drawn) returned Vaccinia Venus -17.7% and VACV mCherry inh inactive.
Screening O=C(c1cccc(C(F)(F)F)c1)c1c[nH]c(C(=O)NCC2CCCO2)c1 (stereo not drawn) returned Vaccinia Venus inconclusive and VACV mCherry inh inactive.
`CC(C)C[C@@H](CN)NC(=O)c1nc[nH]c1C(=O)N[C@@H](C)C(=O)CNC[C@H](C)NC(=O)c1nc[nH]c1C(=O)N[C@@H](CC(=O)O)C(=O)O` gave Vaccinia Venus -3.4% and VACV mCherry inh -23.6%.
CC(C)C(=O)Nc1cccnc1 was read as Vaccinia Venus -5.1% and VACV mCherry inh inactive.
N#Cc1c(NC(=O)CCC(=O)O)sc2c1CCCCC2 was read as Vaccinia Venus 4.9% and VACV mCherry inh 2.5%.
Screening Cn1c(N)c(C(=O)COC(=O)c2cccc(S(=O)(=O)N3CCOCC3)c2)c(=O)n(C)c1=O returned Vaccinia Venus -11.2% and VACV mCherry inh inactive.
COCC(=O)Nc1nc(-c2ccc(-c3ccccc3)cc2)cs1 was read as Vaccinia Venus inconclusive and VACV mCherry inh -30.8%.
CC(C)C[C@H](NC(=O)c1nc[nH]c1C(=O)N1CCC(C)CC1)C(=O)OCc1ccccc1 was read as Vaccinia Venus -26.3% and VACV mCherry inh -0.8%.
For O=C(Nc1ccc(Cl)cc1)Nn1cnc2ccccc2c1=O the results were Vaccinia Venus -1.6% and VACV mCherry inh -0.5%.
O=C(O)c1ccc(S(=O)(=O)N(Cl)Cl)cc1 was read as Vaccinia Venus -14.1% and VACV mCherry inh inactive.
Screening CN=C1CN=C(c2ccc[nH]2)c2cc(Cl)ccc2N1 returned Vaccinia Venus -19.9% and VACV mCherry inh -11.8%.
`CC(C)NCc1nnc(-c2ccc(Cl)cc2)o1` gave Vaccinia Venus -12.8% and VACV mCherry inh inactive.
Cc1cc(C)n(CCOc2nonc2N)n1 was read as Vaccinia Venus -4.6% and VACV mCherry inh -15.0%.
`CC1(C)Cc2c(sc3nc(NCCN4CCOCC4)n4ncnc4c23)CO1` gave Vaccinia Venus 0.0%.
O=C(CCC(=O)N1CCOc2ccccc21)N1CCN(c2ccccc2)CC1 was read as Vaccinia Venus -3.5% and VACV mCherry inh -20.0%.
`CCOC(=O)[C@]12CCCC=C1N(Cc1ccc3c(c1)OCO3)C(=O)[C@H](CC(=O)NCc1ccc(OC)c(OC)c1)C2` gave Vaccinia Venus -11.8% and VACV mCherry inh -16.4%.
COc1ccccc1-c1nc2s/c(=C\c3cccs3)c(=O)n2n1 was read as Vaccinia Venus -9.1% and VACV mCherry inh -10.6%.
CN(C)C(=O)c1ccc(-c2ccc3ncnc(NCc4cccnc4)c3c2)cc1 was read as Vaccinia Venus -54.4% and VACV mCherry inh -55.1%.
Screening COc1ccc(N(CC(=O)N/N=C/c2ccc(-c3ccc([N+](=O)[O-])cc3)o2)S(=O)(=O)c2ccc(C)cc2)cc1Cl returned Vaccinia Venus 0.0% and VACV mCherry inh 7.8%.
For CCCOP(=O)(O)c1c([N+](=O)[O-])cc(C(F)(F)F)cc1[N+](=O)[O-] (tested in a mixture with another compound) the results were Vaccinia Venus -10.0% and VACV mCherry inh -13.5%.
For NC(c1csc(NC(=O)Nc2cccc(C(F)(F)F)c2)n1)C1CCCCC1 (stereo not drawn) the results were Vaccinia Venus 10µM* and VACV mCherry inh inactive.
Screening CC(c1ccc(N(C)C)cc1)c1ccnc2ccccc12 (stereo not drawn) returned Vaccinia Venus -25.4% and VACV mCherry inh -1.0%.
Screening Cc1ccc(N/C(N)=N/c2nc(C)cc(N3CCCCC3)n2)c(C)c1 returned Vaccinia Venus inconclusive and VACV mCherry inh inconclusive.
`COc1cc(C(O)c2nc(-c3csc4ccccc34)cs2)ccc1F` (stereo not drawn) gave Vaccinia Venus -2.4% and VACV mCherry inh inactive.
O=C(NCCc1c[nH]c2ccccc12)C(=O)NCC1OCCCN1S(=O)(=O)c1cccs1 (stereo not drawn) was read as Vaccinia Venus inconclusive and VACV mCherry inh -17.1%.
`COc1ccccc1CNc1ccc(C(=O)O)cc1` gave Vaccinia Venus -10.3% and VACV mCherry inh -18.0%.
